# Compound activity deposited in PubChem BioAssay by Johns Hopkins Ion Channel Center.
# KCNQ2 inh: KCNQ2 channel blockers in CHO-K1 cells – cell-based, FluxOR thallium flux, B-score, primary screen (AID 2156); 20 min; stronger effect = lower value; only compounds with negative scores are shown here; some inactives read as strong as hits; 1.1% of 310,000 active; B-score at 10 µM;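 active = fluorescence ratio B-score at most minus 3 library SDs, with starting brightness B-score within 2 library SDs, cut at about -5.5 in these data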
# Target sequence (O88943 whole entry, looked up): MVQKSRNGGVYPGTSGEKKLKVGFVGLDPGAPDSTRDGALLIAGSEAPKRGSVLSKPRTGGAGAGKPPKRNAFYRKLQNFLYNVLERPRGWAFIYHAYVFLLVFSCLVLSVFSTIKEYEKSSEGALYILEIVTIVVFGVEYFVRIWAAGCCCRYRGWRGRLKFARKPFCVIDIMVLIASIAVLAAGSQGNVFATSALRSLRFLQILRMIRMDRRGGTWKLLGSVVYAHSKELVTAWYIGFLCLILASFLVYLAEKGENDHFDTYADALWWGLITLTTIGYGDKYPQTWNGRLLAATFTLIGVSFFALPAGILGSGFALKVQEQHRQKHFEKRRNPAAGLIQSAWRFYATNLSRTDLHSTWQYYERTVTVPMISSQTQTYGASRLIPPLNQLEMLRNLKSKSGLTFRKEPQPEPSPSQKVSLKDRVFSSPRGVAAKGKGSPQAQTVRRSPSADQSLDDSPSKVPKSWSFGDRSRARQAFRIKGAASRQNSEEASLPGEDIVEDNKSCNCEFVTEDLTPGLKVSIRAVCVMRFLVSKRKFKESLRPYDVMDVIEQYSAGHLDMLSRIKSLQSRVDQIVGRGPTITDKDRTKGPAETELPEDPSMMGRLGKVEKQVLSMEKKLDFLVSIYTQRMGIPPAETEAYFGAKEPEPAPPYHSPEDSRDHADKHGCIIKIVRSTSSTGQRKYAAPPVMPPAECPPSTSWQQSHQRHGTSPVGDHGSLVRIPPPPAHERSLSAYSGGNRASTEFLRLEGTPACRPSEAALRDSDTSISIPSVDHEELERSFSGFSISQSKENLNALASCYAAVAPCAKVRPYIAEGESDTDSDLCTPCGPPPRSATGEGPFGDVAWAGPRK
# KCNQ2 inh baseline: further read-out of KCNQ2 inh, marked with its call; B-score; measured here: initial fluorescence intensity artifact check;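 brightness before thallium and not channel activity; 0 = typical well and far values either way flag optical interference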
# * marks the source's active call; other numbers are inactive results; i = inactive.
nr | molecule | KCNQ2 inh | KCNQ2 inh baseline
1 | CC1CN(C(=S)Nc2ccc(SC(F)F)cc2)CC(C)O1 (configuration not stated) | i | -1.1
2 | O=C(OCC1CC(c2ccccc2)=NO1)c1ccc(Br)cc1 (configuration not stated) | i | -0.72
3 | CCc1cccc(NC(=O)c2cccc3c2C(=O)N(CC2CCCO2)C3)c1 (configuration not stated) | i | -0.18
4 | CCc1nc(C)cn1S(=O)(=O)c1cc(C)c(OC)c(C)c1C | i | -0.36
5 | Cc1ccc(-c2nnc(-c3ccc(NC(=O)c4cccs4)cc3)o2)cc1 | i | 1.8
6 | O=c1c2ccccc2c(-c2ccccc2)nn1-c1ccc(Cl)c(Cl)c1 | i | -1.5
7 | COc1cccc(C(=O)NC(=S)NCc2ccco2)c1 | i | -1.3
8 | O=C(O)COc1ccc(/C=N/NC(=O)c2ccccc2Br)cc1 | i | 0.13
9 | CCc1ccccc1N(C)S(=O)(=O)c1cc(-c2cc(C)no2)ccc1OC | i | -0.02
10 | O=C(Nc1cccc(NC(=O)c2cccs2)c1)c1ccc([N+](=O)[O-])o1 | i | 0.03
11 | COc1ccc(C(=O)COC(=O)CN2C(=O)C3C4C=CC(C4)C3C2=O)cc1 (configuration not stated) | i | 0.22
12 | CC(C)[C@H](NC(=O)N1CCn2c1nc1ccccc12)C(=O)N[C@@H](Cc1ccccc1)C(=O)O | i | 2.3
13 | O=C(NNC(=S)Nc1ccc(Br)cc1Cl)c1ccco1 | i | 0.3
14 | CCN(CC)c1ccc(S(=O)(=O)N2CCOCC2)cc1NS(C)(=O)=O | i | 0.47
15 | O=C(Cc1ccc(Br)cc1)Nc1ccc(S(=O)(=O)NCC2CCCO2)cc1 (configuration not stated) | i | 1.7
16 | CCC(Oc1ccc2c(=O)c(-c3ccccc3OC)coc2c1)C(=O)OCc1ccccc1 (configuration not stated) | i | -1.7
17 | Cc1cccc(NC(=O)CSc2nnc(-c3ccco3)n2CC2CCCO2)n1 (configuration not stated) | i | 2.1
18 | CCCC1=Nc2cc(C(=O)N3CCC(C(=O)OCC)CC3)ccc2Sc2ccccc21 | i | -1.5
19 | CCSc1nc(C(F)(F)F)cc(=O)n1-c1ccccc1 | i | -0.38
20 | O=C(Nc1nc2ccccc2[nH]1)c1ccccc1F | i | -0.67
21 | Cc1nc2ncnn2c(C)c1CCC(=O)NCc1ccco1 | i | -1.4
22 | O=C(Nc1ccc2c(c1)OCO2)N1CCCc2ccccc21 | i | -1.7
23 | CC(=O)NC1C(=O)N(CCN2CCOCC2)c2ccc(Cl)cc21 (configuration not stated) | i | 1.6
24 | COc1ccc(CC(=O)N/N=C/C=C/c2cccc([N+](=O)[O-])c2)cc1OC | i | -0.05
25 | CCOC(=O)C(C)n1cnc2c(nnn2-c2ccc(F)cc2)c1=O (configuration not stated) | i | -0.44

# In another format: results already given.
20	O=C(Nc1nc2ccccc2[nH]1)c1ccccc1F
  KCNQ2 inh: i
  KCNQ2 inh baseline: -0.67
21	Cc1nc2ncnn2c(C)c1CCC(=O)NCc1ccco1
  KCNQ2 inh: i
  KCNQ2 inh baseline: -1.4
22	O=C(Nc1ccc2c(c1)OCO2)N1CCCc2ccccc21
  KCNQ2 inh: i
  KCNQ2 inh baseline: -1.7
23	CC(=O)NC1C(=O)N(CCN2CCOCC2)c2ccc(Cl)cc21 (configuration not stated)
  KCNQ2 inh: i
  KCNQ2 inh baseline: 1.6

# Later entries:
nr | molecule | KCNQ2 inh | KCNQ2 inh baseline
26 | Cc1cccc(NC(=O)C2C3C=CC(O3)C2C(=O)O)c1C (configuration not stated) | i | -2.8
27 | CC1(C)CC(=O)C2=C(C1)OC(N)=C(C#N)C2c1cn(-c2ccccc2)nc1-c1ccccc1 (configuration not stated) | i | -1.3
28 | CCOc1ccc(C(=O)NC(=S)NCCCN2CCOCC2)cc1 | i | -1.6
29 | CCc1nnc(NC(=O)CSc2nnc(Cc3cc(=O)[nH]c(=O)[nH]3)n2-c2cccc(OC)c2)s1 | i | -0.27
30 | C/C(=N\NC(=O)CCC(=O)Nc1ccc(C)c(C)c1)c1cccs1 | i | 2.1
31 | Cc1cc(C)c(OCC(=O)OCC(=O)NCCC2=CCCCC2)c(C)c1 | i | 3.1
32 | CC(=O)Nc1cccc(NC(=O)C2CC(=O)N(c3ccc(C)cc3)C2)c1 (configuration not stated) | i | 0.05
33 | Cc1nc(NC(=O)c2cccc(Cl)c2)sc1C(=O)N1CCCCC1 | -7.5* | -1.6*
34 | Cc1nn(CCOc2cccc(Cl)c2)c(C)c1[N+](=O)[O-] | i | 1.2
35 | O=C(NCc1ccco1)c1ccc(S(=O)(=O)N2CCOCC2)cc1 | i | -0.49
36 | COc1cc(OC)cc(C(=O)N2CCN(Cc3cccc(F)c3)CC2)c1 | i | -0.41
37 | COc1cccc(NC(=O)CN(C)C(=O)c2sc3cc(Cl)ccc3c2Cl)c1 | i | -2.3
38 | COc1ccc(C(=O)/C=C(\C)Nc2ccc3c(c2)OCO3)cc1 | i | -0.95
39 | COc1ccccc1-n1cc(-c2ccc(C)cc2)[nH]c1=S | i | -1.3
40 | CCCCn1nnnc1SCC(=O)NNC(=O)C1CCCCC1 | i | 2.4
41 | CN1CCCC(OC(=O)c2cc(Cl)ccc2Cl)C1 (configuration not stated) | i | -0.18
42 | COc1ccccc1NC(=O)C(C)OC(=O)CCCOc1ccccc1 (configuration not stated) | i | 0.05
43 | N#CCOC(=O)C1CSC2(c3ccc(Br)cc3)CCC(=O)N12 (configuration not stated) | i | 2.1
44 | O=C(c1ccc(Cl)cc1)N1CCC(C(=O)N2CCCc3ccccc32)CC1 | i | -1.4
45 | COc1ccc(C(=S)N2CCCC2)cc1C | i | 0.65
46 | CC(C)CC(NC(=O)OC(C)(C)C)C(=O)O (configuration not stated) | i | -1.5
47 | CC1CCCC(C)N1C(=O)CSc1nnc(NC(=O)c2cccs2)s1 (configuration not stated) | i | -3.2
48 | COc1ccc(S(=O)(=O)Nc2c(C)n(C)n(-c3ccccc3)c2=O)cc1C(=O)O | i | 2.3
49 | CSc1sc(C(=O)N2CCc3ccccc32)cc1S(=O)(=O)C(C)C | i | 1.9
50 | Cc1ccc(C2CC(c3cccc(Br)c3)Nc3nnnn32)cc1 (configuration not stated) | i | -1.2

nr | molecule | KCNQ2 inh | KCNQ2 inh baseline
51 | COc1ccc(OC(=O)c2cnc3n(c2=O)CCS3)cc1 | i | -0.04
52 | C=CCn1c(O)c(C=Nc2ccc(CN3CCCCC3)cc2)c(=O)[nH]c1=S | i | 0.47
53 | COc1ccccc1N1CCN(S(=O)(=O)c2ccc(F)cc2)CC1 | i | -1.8
54 | Nc1ccc(C(=O)OCc2csc(-c3ccccc3)n2)cc1[N+](=O)[O-] | i | 1
55 | COc1cccc(/C=N/NC(=O)c2[nH]nc3c2CCc2ccccc2-3)c1 | i | -1.2
56 | O=C(CC(c1ccccc1)c1ccccc1)NCc1cccnc1 | i | -1.6
57 | CCOC(=O)c1sc(NNC(=O)c2ccc(F)cc2)nc1C | i | 0.7
58 | C/C(=N\Nc1cc(N2CCOCC2)ncn1)c1cccc([N+](=O)[O-])c1 | i | 0.44
59 | COc1ccc(C(=O)Nc2cccc(C)c2)cc1 | i | -0.16
60 | CCc1ccc2[nH]c(=O)c(CN(CCN(CC)CC)C(=S)NCc3ccco3)cc2c1 | i | 2.2
61 | COCCN(CCOC)S(=O)(=O)c1ccc(C(=O)Nc2nnc(CSC)o2)cc1 | i | -0.44
62 | O=C(CN1C(=O)CCSc2ccc(S(=O)(=O)N3CCCC3)cc21)Nc1ccccc1Cl | i | -0.67
63 | Cc1ccc(NCCC(=O)c2cccs2)cc1 | i | -0.02
64 | C/C(=N/NC(=O)NC12CC3CC(CC(C3)C1)C2)c1ccccc1 | i | -0.57
65 | Cc1oc(C(=O)O)cc1COc1ccc2c3c(c(=O)oc2c1C)CCC3 | i | 1.1
66 | O=C(Nc1ccc(F)cc1)c1sccc1SCc1cccc(C(F)(F)F)c1 | i | -2.6
67 | Cc1ccc(CNCCCSc2ncccn2)cc1 | i | -0.9
68 | CCOc1ccc2cc(S(=O)(=O)n3ccnc3C)ccc2c1 | i | 1.1
69 | COC(=O)c1ccc(C(=O)OC)c(NC(=O)COC(=O)CC2CC3CCC2C3)c1 (configuration not stated) | -11* | -0.86*
70 | CC(=O)C1=C(O)C(=O)N(c2ccc(O)cc2)C1c1ccccc1F (configuration not stated) | i | 1.4
71 | COc1ccc(OC)c(NC(=O)C2C3C=CC(C3)C2C(=O)NCc2ccccn2)c1 (configuration not stated) | i | -1.2
72 | COc1cccc(CN2C(=O)C(C)Oc3ccccc32)c1 (configuration not stated) | i | 0.87
73 | Cn1c(CN2CCOCC2)nnc1SCC(=O)NCCc1ccccc1 | i | 0.65
74 | O=C(COc1ccccc1Cl)Nc1ccc(NC(=O)c2ccco2)cc1 | i | -0.15
75 | CCn1cc(C(=O)N[C@H](C(=O)NCCCn2ccnc2)C(C)C)c(=O)c2cc3c(cc21)OCO3 | i | 3.1

nr | molecule | KCNQ2 inh | KCNQ2 inh baseline
76 | Cc1cccc(/C=N/n2c(-c3ccncc3)n[nH]c2=S)c1 | i | -0.71
77 | COc1ccc(Br)cc1CN(C)CC(O)COc1ccc(Br)cc1 (configuration not stated) | -6.3* | -0.12*
78 | COc1ccc2c(c1)NC(c1ccc(N(C)C)cc1)c1cccn1-2 (configuration not stated) | i | -0.14
79 | CSc1ncc(CN2CCc3c([nH]c4ccccc34)C2c2cccc(C)n2)cn1 (configuration not stated) | i | 1.1
80 | COCCN(CCOC)Cc1c(C)[nH]c2ccccc2c1=O | i | -0.01
81 | C/C(CC(=O)NCc1ccco1)=N\NC(=O)c1ccc([N+](=O)[O-])cc1Cl | i | -0.1
82 | COc1ccc(OCC(=O)Nc2ccc(N3CCC(C)CC3)cc2)cc1 | i | 1.1
83 | Cc1nc(-c2nc(-c3c(C(=O)NNC(=O)Nc4cccc(Cl)c4)noc3C)cs2)cs1 | i | 0.67
84 | CCn1cc(CN2CCN(Cc3ccsc3)C(CCO)C2)cn1 (configuration not stated) | i | 0.02
85 | Cc1cc(OCCCCOc2ccc(S(N)(=O)=O)c(C)c2)ccc1S(N)(=O)=O | i | 1.2
86 | N#C/C(=C\c1cccnc1)C(=O)Nc1ccc(Cl)cc1 | i | -0.14
87 | COc1cc(/C=C/C(=O)OCC(=O)NC(=O)NC(C)(C)C)cc(OC)c1OC | i | 0.14
88 | Cn1c(=O)n(C)c2cc(/C=N/NC(=O)c3ccncc3)ccc21 | i | -3
89 | O=C(Nc1cc(Cl)ccc1F)C1=COCCO1 | i | -0.62
90 | CC(C)(CN1CCc2ccccc2C1)NS(=O)(=O)c1ccccc1 | i | -0.03
91 | Cc1nn(CC(=O)NCCc2ccccc2)c(=O)c2cc3occc3n12 | i | 0.04
92 | O=C(CN(CCc1ccccc1)S(=O)(=O)c1ccc(Cl)cc1)N/N=C/c1ccc2c(c1)OCO2 | i | 0.35
93 | O=C(CN(C(=O)CCC(=O)Nc1nccs1)c1ccccc1F)NCc1ccccc1 | i | 0.88
94 | CCCCCCNC(=O)Cc1c(O)c2ccccc2[nH]c1=O | i | 1.6
95 | O=C(COC(=O)c1n[nH]c2ccccc12)Nc1ccccc1 | i | 1.7
96 | CCc1ccc(N2CC(C(=O)Nc3ccc4c(c3)OCCO4)CC2=O)cc1 (configuration not stated) | i | 0.39
97 | COc1ccc(CCNC(=O)C2CCN(C(=O)c3cccc(Cl)c3)CC2)cc1OC | i | -0.06
98 | Cc1ccc(OC(=O)c2oc3ccc(F)cc3c2C)c(C)c1 | i | -0.6
99 | COC(=O)[C@@]1(Cc2ccc(OC)cc2)[C@H]2c3cc(C(=O)N4CCCC4)n(Cc4c(CO)[nH]cc(C)c4=O)c3C[C@H]2CN1C(=O)c1ccccc1 | i | 0.55
100 | CCC1CCCCN1CC(=O)Nc1cc(C)nn1-c1nc(C)cc(C)n1 (configuration not stated) | i | 0.01

nr | molecule | KCNQ2 inh | KCNQ2 inh baseline
101 | CS(=O)(=O)c1sc2nc(-c3cccs3)cc(-c3ccccc3)c2c1N | i | -0.64
102 | Cc1ccc(OCc2nnc(SCC(=O)N3CCc4ccccc43)n2C)cc1 | i | 0.71
103 | COc1ccc(/C=C(\NC(=O)c2cccs2)C(=O)NC(C)(C)C)cc1OC | i | 0.09
104 | CC(CNC(=O)C(C)(C)C)NC(=O)C(C)(C)C (configuration not stated) | i | -1.4
105 | O=C(c1ccc(Cl)cc1)n1cnc2ccccc21 | i | -0.97
106 | Cc1ccc(S(=O)(=O)N(C)C)cc1[N+](=O)[O-] | i | -0.73
107 | COc1ccc(/C(C)=N/NC(=O)CNC(=O)/C=C\c2ccco2)cc1 | i | -0.03
108 | COc1ccc(OC)c(CCNC(=O)c2ccc3c(=O)[nH]c4c(C(=O)NC(C)C)sc(=S)n4c3c2)c1 | i | -0.08
109 | CCN1CCN(C(=O)N2CCOCC2)CC1 | i | 1.3
110 | CC(C)(C)c1csc(N(CCC#N)CCC#N)n1 | i | 0.23
111 | COc1ccc(-c2cc(C(F)(F)F)n3ncc(C(=O)N4CCc5ccccc5C4)c3n2)cc1 | -6.8* | 0.02*
112 | CCC(C)NC(=O)CC1Oc2ccc(Cl)cc2NC1=O (configuration not stated) | i | 7.1
113 | CCCOc1ccc(-c2nc(N3CCN(CC)CC3)c3ccccc3n2)cc1 | i | -2.1
114 | CCCCCC(=O)NC(=S)Nc1ccc(Br)cc1C | i | -0.42
115 | O=C(CN1CCCCC1)Nc1ccc(C(F)(F)F)cc1Cl | i | -0.8
116 | Cc1cc(Br)ccc1OCC(=O)N(Cc1nc(-c2ccccc2)no1)C(C)C | -6* | -0.25*
117 | Cc1ccc(S(=O)(=O)Cn2nnnc2C(C(C)C)N2CCSCC2)cc1 (configuration not stated) | i | 2.1
118 | O=C1CCC(=O)N1OCCOc1ccc(Cl)c2ccccc12 | i | -0.08

# Looked up by structure from the list above, 3 records:
nr | molecule | KCNQ2 inh | KCNQ2 inh baseline
56 | O=C(CC(c1ccccc1)c1ccccc1)NCc1cccnc1 | i | -1.6
57 | CCOC(=O)c1sc(NNC(=O)c2ccc(F)cc2)nc1C | i | 0.7
114 | CCCCCC(=O)NC(=S)Nc1ccc(Br)cc1C | i | -0.42

# The list is partial (hit frequency here may not be typical).
